eIF4H inh – human eIF4H binding inhibitors, primary screen, translation initiation inhibitor project, biochemical, uHTS, fluorescence polarization; Eukaryotic translation initiation factor 4H (Homo sapiens), Q15056; hit rate 0.94% among 290,000; inhibition, % at 35 µM; eIF4H fluorescence polarization binding assay;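 active means 50% or more with normal probe brightness, or confirmed in later tests; inconclusive means above 50% with abnormal brightness, or retests that disagree; inactive means below 50% or failed in later tests; about a fifth of its hits are not listed in these tables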;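 further: calls also rest on retests at 20 µM and on dose response follow-up; 0% = protein and probe with vehicle and 100% = probe without protein; strong numbers were not always called active; many hits fall short of the cut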
PABP FP inh – PABP poly(A) RNA binding inhibitors, primary screen, biochemical, fluorescence polarization, uHTS; hit rate 1% among 290,000; inhibition, % at 35 µM; AID 2014, 2009; Polyadenylate-binding protein 1 (Homo sapiens), P11940;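 active means 50% or more with normal probe brightness, or confirmed in later tests; inconclusive means above 50% with abnormal brightness, or retests that disagree; inactive means below 50% or failed in later tests; about a fifth of its hits are not listed in these tables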;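 further: calls also rest on retests at 20 µM and on dose response follow-up; controls were probe without protein and protein plus probe with vehicle; some compounds called inactive have numbers as strong as hits; many hits fall short of the cut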
Target sequence (P11940 whole entry, looked up): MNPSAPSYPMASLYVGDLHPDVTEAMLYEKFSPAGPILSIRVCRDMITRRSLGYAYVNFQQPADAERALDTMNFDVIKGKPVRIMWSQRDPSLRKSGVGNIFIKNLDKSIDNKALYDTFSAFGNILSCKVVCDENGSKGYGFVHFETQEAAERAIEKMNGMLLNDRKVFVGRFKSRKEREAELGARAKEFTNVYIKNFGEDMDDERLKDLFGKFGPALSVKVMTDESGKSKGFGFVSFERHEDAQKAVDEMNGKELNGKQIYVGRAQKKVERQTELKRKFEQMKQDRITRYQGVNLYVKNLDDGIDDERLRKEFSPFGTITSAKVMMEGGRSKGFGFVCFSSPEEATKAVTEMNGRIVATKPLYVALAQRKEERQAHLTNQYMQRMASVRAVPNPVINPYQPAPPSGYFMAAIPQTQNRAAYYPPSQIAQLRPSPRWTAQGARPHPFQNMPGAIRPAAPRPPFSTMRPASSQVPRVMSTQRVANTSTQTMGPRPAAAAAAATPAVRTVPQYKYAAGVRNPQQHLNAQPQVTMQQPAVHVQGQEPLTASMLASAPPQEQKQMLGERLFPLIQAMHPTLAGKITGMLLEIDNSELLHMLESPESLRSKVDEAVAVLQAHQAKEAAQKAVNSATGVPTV
HIV Env fusion – inhibitors of HIV-1 Env-driven cell-cell fusion, primary screen, HeLa-JRFL effector, CEM21 target cells, luciferase. inhibition, % at 12.3 µM. hit rate 1.1% among 360,000. AID 651610, 2012;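 active means mean replicate inhibition score of at least 50 and every replicate individually at or above 50; inconclusive means only one of the two criteria met; inactive means mean below 50 and not all replicates reaching 50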;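 further: 0% = plate neutral controls and 100% = maraviroc near 300 nM; one replicate is shown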
Yeast UUG start – modulators of yeast start codon fidelity, primary screen, whole organism, S. cerevisiae, single point, plate reader; activity score, % at 18.7 µM; AID 602363, 2012; hit rate 0.13% among 350,000; S. cerevisiae UUG-firefly luciferase reporter, luminescence/redox ratio;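 active means replicate mean at a twofold rise or more, about +100% in these data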;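 further: firefly luciferase made from a UUG start codon reports start codon fidelity; reporter light over untreated wells divided by growth signal over untreated wells; some hits fall short of that in this replicate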
CSC inhib – cancer stem cell viability inhibitors, primary screen, luminescence; cancer stem cell-like cells viability; inhibition, % at 7.5 µM; hit rate 1.1% among 300,000; AID 2717, 2010;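 active means mean at 75% or more and at least half the replicates too; inconclusive means mean and replicates disagree; tested in HMLE shEcad cells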;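 further: 0% = median of negative and 100% = median of positive control wells; the first replicate is given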
MT1-MMP act inh – blockers of MT1-MMP proenzyme processing, primary screen, HT1080 RFP-PRO-GFP cells, GFP/RFP fluorescence; Matrix metalloproteinase-14 (Homo sapiens), P50281; GFP/RFP ratio fluorescence, overnight; percent of plate control window, DMSO zero; GFP/RFP ratio change, % at 20 µM; hit rate 0.061% among 360,000; AID 651647, 2012;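 active means GFP/RFP ratio change of at least 30% with cell ATP level not reduced by more than half and red fluorescence within 50% of control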; further: strong numbers were not always called active
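Assay system: HT1080 RFP-PRO-GFP cells | Dosing: 20 µM single dose, 1% DMSO | Incubation: Cells overnight before dosing, compound overnight, 37 °C, 5% CO2 | Evaluation: GFP/RFP fluorescence ratio | Control set: DMSO-only wells and HT1080 RFP-L50D-GFP cell wells as references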
Rce1 inh – yeast Rce1p protease inhibitors, primary screen, biochemical, fluorescence, cell-free homogeneous; CAAX prenyl protease 2 (Saccharomyces cerevisiae (strain ATCC 204508 / S288c)), Q03530; yeast membranes, quenched prenylated peptide cleavage fluorescence; calls only; hit rate 0.27% among 290,000; AID 2563, 2010;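 active means fall in fluorescence gain of 50% or more versus controls, with final raw signal at or below 3038400; inconclusive means same 50% fall but final raw signal above 3038400; inactive means fall in fluorescence gain under 50%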;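 further: plate controls were neutral control wells for no effect and wells lacking membranes for full effect; tested at 10 µM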
MT1-MMP act inh RFP – further read-out of MT1-MMP act inh, marked with its call; RFP signal change, %; measured here: RFP expression control read;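 0 = vehicle wells; hits needed this value within 50% of zero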
* hit, by the source's call; i = inactive; ? = inconclusive; . = no result given; + = active, no number.

canonical_smiles | Rce1 inh | eIF4H inh | PABP FP inh | Yeast UUG start | CSC inhib | HIV Env fusion | MT1-MMP act inh | MT1-MMP act inh RFP
Cc1cc(C)c2oc(=O)cc(CN3CCC(C)CC3)c2c1 | i | 2 | -3 | -13 | -5 | 29 | 2 | 1
CCCc1cc(C(N)=O)c(NC(=O)c2cc(C)on2)s1 | i | 10 | 17 | -7 | -13 | . | -6 | -2
NC(=O)c1ccccc1NC(=O)CN1CCCCCC1 | i | -3 | 5 | -4 | -12 | 1 | 3 | 3
CCN1CCN(C(=O)C2CCC(=O)N(Cc3cccc(C(F)(F)F)c3)C2)CC1 (stereo unspecified) | i | -3 | 1 | -15 | -2 | -2 | 0 | 1
CC1(CC(=O)NNC(=O)Nc2ccccc2)OCCCO1 | i | -5 | -5 | -10 | 2 | -1 | 5 | 5
C=CCN1C(=O)/C(=C2/Sc3ccccc3N2C)SC1=Nc1c(C)n[nH]c1C | i | -9 | -2 | . | -40 | . | 3 | 0
COc1cc(C)ccc1OCc1cc(C(=O)NC(c2ccccn2)C(F)(F)F)no1 (stereo unspecified) | . | . | . | 6 | . | 7 | -13 | -13
COc1ccc2[nH]c(=O)c(CN(C(=O)c3ccccn3)c3ccccc3)cc2c1 | i | 0 | 1 | -7 | . | . | 0 | 2
CCc1ccc(/C(C)=N/NS(=O)(=O)c2ccc(OC)cc2)s1 | i | -5 | 1 | 5 | . | . | 2 | 1
Nc1nnc(SCC(=O)NC23CC4CC(CC(C4)C2)C3)s1 | i | -5 | -9 | -6 | -12 | 40 | -1 | 4
CCOC(=O)c1c(C)nc2ccccn12 | i | -2 | 8 | -12 | 3 | -57 | -4 | -1
NC(=O)CC(NC(=O)Cc1cccc2ccccc12)c1ccc(NC2CCCCCC2)c([N+](=O)[O-])c1 (stereo unspecified) | i | -12 | -8 | -18 | 45 | 6 | 2 | 3
O=C(N/N=C/c1ccc(N2CCOCC2)s1)c1ccc(O)cc1 | . | . | . | -28 | . | -6 | 3 | 3
COc1ccccc1OCc1n[nH]c(=S)n1Cc1ccccc1 | i | -4 | 4 | . | -11 | -52 | -1 | -1
C=CCOc1c(CNc2ccc3[nH]c(=O)[nH]c3c2)cccc1OC | i | 9 | 0 | . | -2 | -3 | 3 | -1
CCOc1ccccc1NC(=O)c1cc(-c2ccncc2)nc2c(Cl)cccc12 | i | -16 | -14 | . | . | -6 | 0 | -5
CCOC(=O)Cn1c(=O)c2c(nc(N3CCOCC3)n2C)n(C)c1=O | i | 11 | 4 | . | 12 | -44 | 3 | -4
O=C(Cn1ccc2ccccc2c1=O)NCC1COc2ccccc2O1 (stereo unspecified) | i | 5 | -2 | -12 | . | -20 | 3 | 8
O=S(=O)(c1ccc2c(c1)OCCO2)N1CCc2ccccc21 | i | 2 | 23 | -6 | -13 | -16 | -1 | -2
COc1cc(NC(=S)NCC2CCCO2)c(OC)cc1Cl (stereo unspecified) | . | -7 | -1 | -1 | -35 | -6 | -2 | 2
Nc1ncnc2c1ncn2[C@@H]1O[C@H](CNCc2ccc(-c3cc(C(F)(F)F)ccc3Cl)o2)[C@@H](O)[C@H]1O | . | . | . | -14 | . | -121 | 4 | 3
COc1cc(NC(=O)c2ccccc2[N+](=O)[O-])c(C(=O)O)cc1OC | i | 7 | 4 | -5 | 8 | 7 | -5 | 2
O=C1CC(c2ccccc2)C(C(=O)O)N1 (stereo unspecified) | i | -14 | 5 | -9 | -9 | -21 | -4 | 7
CCn1c(C(c2ccccc2)c2ccccc2)n[nH]c1=S | i | -8 | -5 | -25 | -11 | . | 2 | -1
CC(C)(C)c1nnc(N/N=C/c2ccccc2O)n(N)c1=O | i | 8 | -1 | -46 | . | -18 | -1 | -10
O=C(Nc1ccccc1Sc1ccccc1)c1ccc(F)cc1 | i | 2 | -5 | . | -7 | ? | -1 | -7
CCCCN(C)c1c(C)nc2ccc(C(=O)Nc3ccc(OC)c(OC)c3)cn12 | . | . | . | -15 | . | -6 | 2 | 1
COc1ccc(-c2cc(C(=O)Nc3cc(S(N)(=O)=O)ccc3C)c3ccccc3n2)cc1OC | i | . | . | . | 2 | -16 | -1 | 4
C=CCn1c(SCC(=O)N2CCOCC2)nnc1C(C)NC(=O)c1ccccc1 (stereo unspecified) | i | -5 | 3 | -13 | 10 | -273 | 1 | 4
Cc1ccc(CC2(C)C(=O)Nc3c(Cl)ccc(Cl)c32)cc1 (stereo unspecified) | . | . | . | -3 | . | -23 | -4 | -15
COc1ccc(NC(=O)CCCOc2ccc(C)cc2)cc1S(=O)(=O)N1CCCCC1 | . | . | . | -18 | . | 29 | 2 | -15
O=S(=O)(NCC(c1ccco1)N1CCN(c2ccccc2F)CC1)c1ccc(F)cc1 (stereo unspecified) | i | 0 | 6 | . | -3 | -55 | 3 | 1
O=C(NCc1ccccc1)N(Cc1cc2cc3c(cc2[nH]c1=O)OCO3)CC1CCCO1 (stereo unspecified) | i | 5 | 3 | -5 | -11 | . | 0 | 1
O=C(O)c1cc(C(F)(F)F)nc2c(C(F)(F)F)cccc12 | i | 0 | -1 | -12 | -6 | 7 | -3 | 2
CCOc1ccccc1NC(=O)CSc1nnc(-c2cnccn2)n1CC | i | 1 | -7 | -6 | 4 | -105 | . | .
CC(=O)c1cc2c(cc1NC(=O)CN1CCN(c3cccc(C(F)(F)F)c3)CC1)OCO2 | i | -13 | 3 | -10 | 9 | . | -2 | -7
Cc1ccc(C(=O)NCC(=O)Nc2cc(C)ccn2)cc1 | i | . | . | -17 | -7 | -31 | -3 | 1
COC(=O)c1ccncc1N | i | -2 | -10 | . | -5 | -7 | -2 | 3
CCOC(=O)C1=C(O)/C(=C/N(C)C)N=C1C | i | 89* | 89* | -4 | -1 | . | -5 | 2
COc1ccc2oc(=O)c(C(=O)N3CCN(C(=O)c4ccco4)CC3)cc2c1 | i | 3 | 2 | -8 | -1 | -5 | -4 | -3
CCOC(=O)C(C(=O)OCC)[C@@H]1CS(=O)(=O)C[C@H]1C(C(=O)OCC)C(=O)OCC | i | -10 | 5 | 3 | -1 | . | -6 | 0
O=C(NCc1ccc2c(c1)OCO2)c1cccc(S(=O)(=O)N2CCCC2)c1 | i | -1 | 7 | 5 | -10 | -7 | 2 | 2
COc1ccc(C2CC(=O)C(C=NCCO)=C(O)C2)cc1 (stereo unspecified) | i | 38 | 13 | -7 | -2 | -11 | -5 | 1
COc1cc(C2C(C(=O)c3ccc(C)o3)=C(O)C(=O)N2c2cc(C)on2)ccc1O (stereo unspecified) | i | -15 | 6 | -17 | 0 | . | 3 | 8
CCc1sc(C(=O)NC2CCN(C)CC2)cc1Br | i | -2 | 2 | . | -7 | -15 | 7 | 2
COc1ccccc1N1CCN(C(=O)c2ccc3c(c2)CCN3S(C)(=O)=O)CC1 | i | 0 | 0 | -10 | . | 1 | 4 | 0
COc1ccc(NC(=O)c2cccc(NC(=O)c3ccccc3)c2)cc1 | i | 0 | -4 | -5 | 8 | 4 | 4 | -1
Cc1ccc(-n2nc3c(c2NC(=O)c2ccc4c(c2)OCO4)CS(=O)C3)cc1 (stereo unspecified) | i | 9 | -5 | -1 | -14 | -88 | 2 | 1
Cc1c(C)c2cc(Cl)c(OCc3nn[nH]n3)cc2oc1=O | i | -8 | 16 | -11 | -8 | . | 0 | 5
Nc1nonc1-n1nnc(C(=O)N/N=C/C=C/c2ccccc2)c1CSC1=NCCS1 | i | 7 | 2 | -8 | 27 | -2 | -5 | -15
Cc1ccc(CS(=O)Cc2ccc(C(=O)NCc3ccc4c(c3)OCO4)o2)cc1 (stereo unspecified) | i | -2 | -4 | 0 | 3 | 4 | 1 | -1
FC(F)(F)c1cccc(Sc2cc(C(F)(F)F)nc(-c3ccccn3)n2)c1 | i | -4 | -1 | -6 | 9 | -69 | -26 | -8
C[C@]12c3[nH]c4cc(-c5ccco5)ccc4c3CCN1C(=O)[C@@H](CC(=O)NCCc1ccccn1)C[C@@H]2C(=O)N1CCOCC1 | . | . | . | 0 | . | -54 | 3 | 10
CCCOc1cccc(-c2cc(C(=O)NNC(=S)NCC)c3ccccc3n2)c1 | . | 18 | 2 | . | -1 | -263 | -3 | -5
CCOc1ccc(C(=O)CCC(=O)O)cc1 | i | -6 | -7 | . | -14 | . | 8 | 3
COc1ccc(NC(=O)N(C)C[C@@H]2OCc3cn(nn3)CCCC(=O)N([C@H](C)CO)C[C@H]2C)c(OC)c1 | . | . | . | -3 | . | 16 | 1 | 2
Cc1cc(C)cc(CC(=O)N2CCC2(C)C(=O)NS(=O)(=O)c2ccccc2C)c1 (stereo unspecified) | . | . | . | 0 | . | i | 2 | 5
Cc1cccc(-n2c(SCC(=O)Nc3nonc3C)nnc2-c2ccoc2C)c1 | . | -6 | 1 | -29 | 10 | -6 | -11 | -2
CC(C)CN=C(NS(=O)(=O)c1ccccc1)C(Cl)(Cl)Cl | i | 7 | 9 | . | 147* | -53 | 3 | -6
CCOc1ccc(S(=O)(=O)N2CCC(C(=O)NCc3ccncc3)CC2)cc1C | i | -3 | 4 | -2 | -4 | 1 | 7 | 4

Continued.
canonical_smiles | Rce1 inh | eIF4H inh | PABP FP inh | Yeast UUG start | CSC inhib | HIV Env fusion | MT1-MMP act inh | MT1-MMP act inh RFP
O=C1c2ccccc2-c2c1cccc2C(=O)N1CCCCCC1 | i | 10 | 8 | . | -4 | 8 | -5 | -2
CCOc1ccc(-c2nc(CCl)cs2)cc1OC | + | -11 | -9 | -4 | 0 | -11 | -3 | 1
C=CCSc1ncc(C#N)c(N)n1 | i | 1 | -9 | -18 | 1 | -116 | 1 | 2
CCNC(=O)c1sccc1-n1cccc1 | i | -3 | -3 | 7 | -21 | -15 | -8 | 2
C[C@@H]1NC(=O)[C@H](CCCN=C(N)N)NC(=O)c2cc([N+](=O)[O-])cc(I)c2OCC[C@@H](C(=O)NC(CC(=O)O)C(N)=O)NC1=O (stereo partly specified) | i | -5 | -6 | . | -17 | . | . | .
COc1cc2c(cc1OC)C(C)N(C(=O)c1cccs1)CC2 (stereo unspecified) | i | -5 | 1 | . | 8 | -13 | 3 | 4
COc1ccc(CNC(=O)C2CCN(S(=O)(=O)c3ccc(N4CCCC4=O)cc3)CC2)cc1 | . | . | . | -5 | . | 0 | -3 | -17
CC(=O)c1cc(CN2CCCCC2)cc(OC(C)C)c1 | . | 1 | 7 | . | -13 | -9 | 3 | 5
O=C(Nc1nccs1)C1CC(=O)N(Cc2ccco2)C1 (stereo unspecified) | i | 19 | -7 | . | -12 | -6 | 0 | 7

Source: PubChem (several laboratories)
